Screening data from PubChem.
HCMV UL50-53 inh: disrupts HCMV UL50-UL53 complex binding; AID 1918969; inhibition, % (test concentration not listed); HTRF UL50-UL53 interaction, normalized percent inhibition; 0.15% of 190,000 active;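 active = both replicates at 50% or more, plus weaker picks with an unusually low signal ratio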;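 also: stock transfer was 100 nL into about 20 µL; 0% = negative control wells and 100% = wells with untagged competitor protein; inactives centre near -12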
GIV-Gai inh: GIV-Galpha-i interaction inhibition | 0.42% of 210,000 active | percent of control (FP), % (test concentration not listed) | AID 1224905 | P08753 | Galpha-i3/FITC-GIV peptide fluorescence polarization, 90 min; hits give low values; scaled: aluminum fluoride 0%, vehicle 100%;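 active = replicate mean at 85% of control or lower, very high polarization wells dropped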;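 also: wells of about 15 µL received 100 nL stock; the first replicate is given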
Target sequence (P08753 whole entry, looked up): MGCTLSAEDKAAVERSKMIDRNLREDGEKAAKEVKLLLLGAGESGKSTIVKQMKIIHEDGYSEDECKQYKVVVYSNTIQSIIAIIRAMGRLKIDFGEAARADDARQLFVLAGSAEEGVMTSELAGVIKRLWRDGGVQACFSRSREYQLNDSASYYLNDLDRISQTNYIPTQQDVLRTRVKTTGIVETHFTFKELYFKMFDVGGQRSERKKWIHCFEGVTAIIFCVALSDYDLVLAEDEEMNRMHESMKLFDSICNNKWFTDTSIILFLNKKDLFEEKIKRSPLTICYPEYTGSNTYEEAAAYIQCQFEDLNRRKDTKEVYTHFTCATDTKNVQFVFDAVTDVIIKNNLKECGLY
Sa growth inh: S. aureus growth inhibition; 0.53% of 170,000 active; AID 720641; relative growth, % (concentration not given with the values); S. aureus RN4220 growth, OD600, 20 h, 42 °C; hits give low values;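 active = growth at 42 °C up to 50% and 20 or more points under that at 30 °C, or under 10% at both; inconclusive = no clear call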;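 also: 300 nL library stock went into each well; scaled to the means of positive and negative controls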
Sa growth inh second temp: further read-out of Sa growth inh, marked with its call; relative growth, %; measured here: growth at 30 °C;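 optical density after 20 h as mean of two plates; 100% = untreated growth and lower means inhibition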
The depositor's hits bear a star; u = inconclusive; x = no result given; & = joins results of further samples.

SMILES	HCMV UL50-53 inh	GIV-Gai inh	Sa growth inh	Sa growth inh second temp
CCOC(=O)c1ccc(NC(=O)CN2Cc3ccccc3C2=O)cc1	x	107	98	89
CCC(C(=O)Nc1cccc(C(=O)O)c1)c1ccccc1 (stereo not given)	-7	102	91	93
O=S(=O)(Nc1ccc2c(c1)nc1n2CCN(Cc2ccccc2)C1)c1ccc(F)cc1	-16	112	71	50
CC(C)(C)Nc1nc(=O)[nH]c(=O)[nH]1	-11	x	98	91
CCc1ccc(C2Nc3cc(Cl)ccc3C3=NCCCN32)cc1 (stereo not given)	-17	103	63	47
Cc1cc2oc(=O)sc2cc1NS(=O)(=O)c1cccc2cccnc12	-11	105	75	61
Cc1ccc(NC(=O)Cc2ccc(NC3=NC4CS(=O)(=O)CC4S3)cc2)cc1 (stereo not given)	2	104	87	82
c1ccc2[nH]c(CCCCc3nc4ccccc4[nH]3)nc2c1	-10	106	85	57
COC(=O)c1ccc2c(c1)N(Cc1ccccc1)C(=O)c1ccccc1S2	x	102	91	82
O=C(NC1CCS(=O)(=O)C1)c1ccc(N2C(=O)CCS2(=O)=O)cc1Cl (stereo not given)	-18	103	x	x

Pulled by structure from the entries so far (4):
SMILES	HCMV UL50-53 inh	GIV-Gai inh	Sa growth inh	Sa growth inh second temp
CCC(C(=O)Nc1cccc(C(=O)O)c1)c1ccccc1 (stereo not given)	-7	102	91	93
COC(=O)c1ccc2c(c1)N(Cc1ccccc1)C(=O)c1ccccc1S2	x	102	91	82
CCc1ccc(C2Nc3cc(Cl)ccc3C3=NCCCN32)cc1 (stereo not given)	-17	103	63	47
O=S(=O)(Nc1ccc2c(c1)nc1n2CCN(Cc2ccccc2)C1)c1ccc(F)cc1	-16	112	71	50

Next part.
SMILES	HCMV UL50-53 inh	GIV-Gai inh	Sa growth inh	Sa growth inh second temp
CCn1c(CNC(=O)NCc2ccccc2)nnc1SC	2	96	79	87
NC(=O)c1ccc(C2SCC(=O)N2Cc2ccccc2)cc1 (stereo not given)	-7	99	88	80
O=C(NCc1ccccc1CN1CCOCC1)c1ccc(-n2cccn2)cc1	-21	x	102	81
COc1cc(SC)ccc1C(=O)N(C)c1ccccc1	-4	x	97	96
CC1CCCC(C)N1C(=O)c1ccccc1 (stereo not given)	x	97	97	85
CCOc1ccc(CCNC(=O)c2ccc3c(c2)c(C)c(C)n3Cc2ccccc2)cc1OCC	x	106	91	94
COc1ccccc1C(=O)NCC(=O)N1CCN(S(=O)(=O)c2cc(C)ccc2C)CC1	-21	x	78	88
CC(C)(C)n1cccc1C=C1C(=O)NC(=O)NC1=O	-42	98	110	102
CCN(CC)C(=O)CSc1nnc(-c2ccc(OC)cc2)n1CCOC	-23	108	87	99
Cc1cccc(NC(=O)c2c(NC(=O)C(F)(F)F)sc3c2CCCCC3)c1	-53	105	35	12
COC(=O)c1ccc2c(c1)sc(=NC(=O)c1ccc(S(=O)(=O)N3CCCCC3)cc1)n2C	x	103	113	94
C=CCn1cnc2c(oc3ccccc32)c1=O	2	107&110	95	81
O=S1(=O)CCC(Nc2nc(-c3cccnc3)nc3scc(-c4ccccc4)c23)C1 (stereo not given)	-31	x	67	58
CN1CCN(CCCNC(=O)c2cc3c(=O)n(C)c4ccccc4c3s2)CC1	-34	104	107	93
CC(C)(C)C1CC=C2C(C#N)=C(N)C(C#N)(C#N)C(CCc3ccccc3)C2C1 (stereo not given)	-21	103	62	28
Cc1ccc(NC(=O)CSC2CCCC2)c(C)c1	2	107	86	105
CCC(=O)Nc1nnc(COc2ccc(OC)cc2)s1	3	106	96	98
C=CCN(c1ccccc1)S(=O)(=O)c1cccc2cccnc12	x	114	118	83
O=C(Nc1cccc(C(F)(F)F)c1)c1noc2c1CCCC2	6	100	95	97
COc1ccc(-c2noc(N(c3ccc(F)c(Cl)c3)c3nc(-c4ccc(OC)c(OC)c4)no3)n2)cc1OC	3	102	92	95
COc1ccc(CC(=O)NCC(C)C)cc1	-7	x	107	96
C=C(C)/C=N/NC(=S)Nc1ccc(S(=O)(=O)N2CCOCC2)cc1	-43	x	87	85
CCC(=O)NC(c1ccc(C(C)C)cc1)c1c(O)ccc2ccccc12 (stereo not given)	-4	x	96	56
CCC(=O)N1CCc2cc(Br)cc(S(=O)(=O)CCC(=O)Nc3cccc(Cl)c3)c21	-2	99	96	90
O=C(Oc1ccc2c(c1)OCC2=O)c1ccc(Cl)cc1	-25	100	93	80
CN1C(=O)C2(NN=C(c3ccccc3)S2)c2cc(Br)ccc21 (stereo not given)	-82	98	58	22
OCCN(CCO)CC(O)C12CC3CC(CC(C3)C1)C2 (stereo not given)	-16	x	113	83
CCCNC(=O)Cn1cccc1C(=O)c1ccccc1	x	99	101	86
COC(=O)C(=O)/C=C(\O)c1ccc(Cl)cc1	-8	96	126	81
Cc1ccc(C(C)NC(=O)CCc2nc(-c3cc4ccc(C)cc4[nH]c3=O)no2)cc1 (stereo not given)	-11	107	x	x
N#Cc1ccccc1S(=O)(=O)NCc1ccco1	-8	x	92	97
Cc1ccc(N=Cc2cc(Br)ccc2O)c(S(=O)(=O)N2CCOCC2)c1	-12	x	96	93
O=C(Nc1cccc(-c2nc3ccccc3o2)c1)c1ccc(-c2ccc(Br)cc2)o1	-22	109	116	88
N#Cc1c(SCCN2CCCCC2)sc2c(O)cc(=O)[nH]c12	-80	108	90	74
Cc1ccccc1CNC(=O)c1c(C)nc2ccccn2c1=O	x	101	117	95
Cc1ccc(NC(=O)c2cc(C)nc3c2c(C)nn3-c2cccc(Cl)c2C)c(C)c1	x	102	80	90
[O-][n+]1ccccc1Sc1nnc(Cc2ccccc2)c2ccccc12	-8	105	x	x
Nc1nnc(CCCn2c(=O)oc3ccccc32)s1	-11	x	91	82
CC12CCC(c3c1nn(-c1ccccc1)c3C(F)(F)F)C2(C)C (stereo not given)	-23	104	94	90
O=C(CN1C(=O)c2ccccc2C1=O)Nc1ccc2c(c1)CCC(=O)N2	-46	103	x	x
Cc1ccc(Sc2ccc(N3CCCC(C(=O)Nc4ccc(Cl)cc4)C3)nn2)cc1 (stereo not given)	-13	99	102	83
N#C/C(=C\N1CCN(Cc2ccccc2)CC1)S(=O)(=O)c1ccccn1	-59	101	100	97
O=C(NC1CC1)c1cc(F)c(F)cc1Cl	-36	x	112	84
COc1ccc(-c2ocnc2C(=O)Nc2cccc(Oc3ccccc3)c2)cc1OC	15	94	78	85
COC(CNC(=O)c1cnn2c(C)c(Cc3ccccc3C)c(C)nc12)OC	-28	109	100	88
CCN(CC)C(=O)Cn1cc(SCC(=O)Nc2ccc(C)cc2)c2ccccc21	x	103	103	106
Cc1nc2nncn2c(Nc2ccc(F)cc2)c1C	-37	107	94	87
CC(C)(C)S(=O)(=O)Cc1noc(-c2ccc(OC(F)(F)F)cc2)n1	2	98	100	78
CCOc1ccc(N(C(=O)Cn2nnc3ccccc32)C(C(=O)NCc2ccccc2)c2ccc(OC)cc2)cc1 (stereo not given)	-17	106	102	88
NC(=O)c1ccc(NC(=O)CSc2cccc[n+]2[O-])cc1	-24	x	92	83

An excerpt of these results, as labelled records.
NC(=O)c1ccc(NC(=O)CSc2cccc[n+]2[O-])cc1
  HCMV UL50-53 inh: -24 | GIV-Gai inh: x | Sa growth inh: 92 | Sa growth inh second temp: 83
O=C(Nc1cccc(C(F)(F)F)c1)c1noc2c1CCCC2
  HCMV UL50-53 inh: 6 | GIV-Gai inh: 100 | Sa growth inh: 95 | Sa growth inh second temp: 97
N#Cc1ccccc1S(=O)(=O)NCc1ccco1
  HCMV UL50-53 inh: -8 | GIV-Gai inh: x | Sa growth inh: 92 | Sa growth inh second temp: 97
Cc1nc2nncn2c(Nc2ccc(F)cc2)c1C
  HCMV UL50-53 inh: -37 | GIV-Gai inh: 107 | Sa growth inh: 94 | Sa growth inh second temp: 87

Additional records follow.
SMILES	HCMV UL50-53 inh	GIV-Gai inh	Sa growth inh	Sa growth inh second temp
CCOC(=O)Cn1c(=O)n(CC2CCCO2)c2nc(-c3cc(OC)ccc3OC)nc(C(N)=O)c21 (stereo not given)	x	107	100	97
C[C@@H](C(=O)OCN1C(=O)c2ccccc2C1=O)N1C(=O)C2CC=CCC2C1=O (stereo not given in full)	-39	x	88	100
C=Cc1ccc(CN(c2nc3nc(C)cc(C)n3n2)S(=O)(=O)c2ccc(C)cc2)cc1	-26	114	x	x
Cn1cc(C(=O)Nc2ccc(Br)cc2)c2[nH]c(=O)n(-c3ccc(F)cc3)c(=O)c21	-17	104	x	x
O=C(c1cc(-c2cccnc2)on1)N1CCOCC1	8	101	x	x
CC1CCC(NC(=O)c2ccc3snnc3c2)CC1 (stereo not given)	x	98	117	92
Cn1c(CN(c2ccc(F)cc2)S(C)(=O)=O)nnc1SCC(=O)N1CCCC1	-19	100	x	x
CC(C)COC(=O)CNc1n[nH]c(=O)[nH]c1=O	x	105	u	x
Cc1onc(-c2c(Cl)cccc2Cl)c1NC(=O)N(C)C	-26	102	114	87
COC(=O)c1c(NC(=O)CSc2nnc3sc4ccccc4n23)sc2c1CCC2	-27	99	x	x
Cc1cc(=O)oc2cc(OCC(=O)Nc3c(C(C)C)cccc3C(C)C)ccc12	-51	110	100	90
O=C(c1ccc(=O)[nH]n1)N1CCN(Cc2ccccc2)CC1	-1	108	104	99
O=C(CC1CCCC1)N1CCC(n2nc(-c3ccccc3)oc2=O)CC1	-1	102	x	x
O=C(NCc1ccccn1)c1nn(-c2ccccc2)c(=O)c2ccccc12	-13	x	107	96
O=C(COc1ccccc1)Nc1ccc2oc(=O)ccc2c1	-3	x	89	82
Cc1cccc(NC(=S)Nc2ccc(N(C)C)cc2)c1	-23	99	100	92
COc1ccc2c(c1)c(N1CCCC1=O)c(C(=O)Nc1cc(C)c(Cl)cc1OC)n2C	x	107	89	84
COc1ccccc1CNC(=O)Cc1noc2ccccc12	x	96	101	86
O=C(Nc1nccs1)C1=COCCO1	-34	x	99	87
CCNC(=O)c1cc2n(n1)CCCN(Cc1ccccc1)C2=O	-3	111	102	96
CCOC(=O)c1sc(N(C)C(C)=O)nc1C	11	108	97	84
CCOCCCn1c(SCC(=O)Nc2oncc2-c2ccc(F)cc2)nc2ccccc2c1=O	-2	100	x	x
CC1(C)C/C(=N/O)c2cc3c(nc2C1)CC(C)(C)C/C3=N\O	2	103	111	127
CSc1nc2ccc(NC(=O)c3ccc(F)c(F)c3)cc2s1	-16	x	97	86
Cc1cn2c(=O)cc(COc3cccc(NC(=O)c4ccccc4Cl)c3)nc2s1	-9	98	87	90
COc1ccc(Nc2ncc3c(n2)CCN(Cc2ccc(Br)s2)C3)c(OC)c1	x	109	107	100
Cc1nc2ncccc2c(=O)n1-c1cccc(NC(=O)c2ccccc2Br)c1	14	100	x	x
N#Cc1cnc2c(C(N)=O)cnn2c1N	3	x	90	125
Brc1ccc2nc(N3CCOCC3)nc(-c3ccccc3)c2c1	-4	101	x	x
COCCNC(=S)N1CCC(NC(=O)Nc2ccc(F)cc2)CC1	0	107	98	90
CC(C(=O)N1CCCC1)N1Cc2ccccc2C1=O (stereo not given)	6	110	x	x
Cc1ccc(NC(=S)NC2CCS(=O)(=O)C2)cc1 (stereo not given)	-10	101	103	95
CCOC(=O)c1cccc(NC(=O)Cn2c(=O)c3cccn3c3ccccc32)c1	14	109	103	103
CN(Cc1ccccc1)c1ncnc2c1oc1ccccc12	-12	x	81	97
O=S(=O)(c1ccc(C2CCCCC2)cc1)N1CCc2ccccc21	x	99	109	100
CCOc1ccc(CNC(=O)CCC(=O)N2Cc3ccccc3Oc3ncccc32)cc1	x	103	86	80
CCC(C)(C)/C(=N/O)c1ccccc1	-5	104	116	96
COc1cc(OC)cc(C(=O)Nc2cc(C(=O)N3CCCC3)ccc2N2CC3CC(C2)c2cccc(=O)n2C3)c1 (stereo not given)	-28	101	96	87
Cc1cc(N)n(-c2ccc(S(=O)(=O)c3ccc(C(C)C)cc3)cc2)n1	-1	x	112	87
Cc1cc(-c2nc(C)c(-c3nnc(SCC(=O)Nc4ccccc4)n3C)s2)no1	-31	103	128	92
Cc1sc2nc(SCC(=O)NCCCN3CCOCC3)[nH]c(=O)c2c1C	-26	101	113	91
CCCc1nnc2n1NC(c1ccc(CC)cc1)C(C(=O)Nc1ccc(CC)cc1)S2 (stereo not given)	-11	104	x	x
Cc1ccc(NC(=O)c2oc3ccccc3c2NC(=O)c2ccc(F)c(F)c2)cc1	-33	101	107	87
COc1ccc(Br)cc1C(=O)Nc1cccc2ccc(C)nc12	-13	108	95	93
O=C(COC(=O)c1ccc(S(=O)(=O)NCc2ccco2)cc1)Nc1ccccc1	-4	x	90	86
CCCCNS(=O)(=O)c1ccc2nc(SCC(=O)C(C#N)c3ccccc3)[nH]c2c1 (stereo not given)	-3	x	101	96
Cc1ccc(NS(=O)(=O)c2c(C)nn(C)c2Cl)c(C)c1	30	108	96	93
CN(C)c1cc(Nc2ccc(SC#N)cc2)c([N+](=O)[O-])c2nonc12	-11	107	x	x
O=C(Nc1ccc(Cl)c(C(F)(F)F)c1)C(=S)NCc1ccco1	-6	x	103	75
COc1cc2nc(C3CCC3)n(N)c(=O)c2cc1OC	-14	103	87	75
CC1CCCCC1NC(=O)c1cccc2c1SCCC2=O (stereo not given)	x	103	108	85

Random draw from the library. About 0.83% of those tested had a hit in this group.
